FGF22 binding: FGF22 (human) thermal shift binding | calls only at 9.99 µM | actives 1.5% (n = 340,000) | AID 651658 | recombinant FGF22 thermal shift, SYPRO orange fluorescence; percent of sucrose octasulfate shift, DMSO zero | Q9HCT0;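 active = melting point raised past a set limit in the mean and every replicate; three in four hits are not shown here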
Target sequence (Q9HCT0 whole entry, looked up): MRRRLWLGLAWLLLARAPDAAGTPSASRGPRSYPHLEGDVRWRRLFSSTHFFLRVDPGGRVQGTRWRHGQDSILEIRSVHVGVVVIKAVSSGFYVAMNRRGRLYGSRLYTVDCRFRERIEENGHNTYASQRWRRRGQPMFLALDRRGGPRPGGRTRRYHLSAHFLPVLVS
HNF4A DNA FP: change in binding of human HNF4 alpha to DNA. P41235. HNF4a-FITC DNA binding, fluorescence polarization, 1 h. activity change, % at 10 µM. actives 0.3% (n = 360,000); in the data active = activity change above about 30%, passing the limit was not always enough;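 also: controls were the assay level and a saturating level of protein; the project sought stronger binding though the title names inhibitors; some compounds called inactive have numbers as strong as hits; positive values seem to mean higher polarization but the record does not say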
Target sequence (P41235 whole entry, looked up): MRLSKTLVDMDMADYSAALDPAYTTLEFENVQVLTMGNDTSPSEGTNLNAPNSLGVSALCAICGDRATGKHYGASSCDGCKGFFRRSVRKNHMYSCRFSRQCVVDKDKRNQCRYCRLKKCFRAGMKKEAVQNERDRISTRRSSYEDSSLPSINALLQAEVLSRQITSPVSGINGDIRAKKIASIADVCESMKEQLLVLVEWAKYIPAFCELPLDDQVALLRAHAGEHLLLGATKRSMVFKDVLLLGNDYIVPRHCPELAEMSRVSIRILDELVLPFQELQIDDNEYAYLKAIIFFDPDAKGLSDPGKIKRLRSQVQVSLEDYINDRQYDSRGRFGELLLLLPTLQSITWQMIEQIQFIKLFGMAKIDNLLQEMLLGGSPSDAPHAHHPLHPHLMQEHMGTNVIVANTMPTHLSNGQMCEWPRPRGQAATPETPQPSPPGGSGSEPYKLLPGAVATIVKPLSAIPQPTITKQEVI
* = called active by the depositor; i = inactive.

SMILES | FGF22 binding | HNF4A DNA FP
CCOC1=C2CN(S(=O)(=O)c3ccc(C)cc3)[C@@H](c3ccc(CC)cc3)C[C@H]2[C@H]2C(=O)N(c3ccccc3)C(=O)[C@H]2C1 | i | 5.8
CCCCCCN1CCN(C2CN(Cc3cn(Cc4ccc(C)cc4)nn3)S(=O)(=O)C2)CC1 (stereo unspecified) | i | -4.7
COc1ccccc1Cc1c(-c2ccc(C#N)cc2)nc2c(C)cc(Br)cn12 | i | 6.0
CCN(CC)CCNc1ccc(CO)c2oc3ccccc3c(=O)c12 | i | 0.2
COc1ccc(C(=O)NCC2CCCO2)cc1S(=O)(=O)NCc1ccc(Cl)cc1 (stereo unspecified) | i | -1.3
N#CCCN(Cc1ccccc1)C(CCc1ccccc1)C(=O)NC1CCCCC1 (stereo unspecified) | i | -0.6
O=C(NCc1ccccc1)C1c2ccccc2OCC(=O)N1C1CC1 (stereo unspecified) | i | -3.2
C[C@H](CO)N1C[C@H](C)[C@@H](CN(C)C(=O)Oc2ccccc2)OCc2cn(nn2)CCCC1=O | i | 0.0
C[C@@H]1CN([C@@H](C)CO)C(=O)c2cc(N(C)C)ccc2O[C@@H](C)CCCCO[C@@H]1CN(C)S(=O)(=O)c1cccs1 | i | 1.6
COc1ccc(CNC(=O)N2[C@H]3CC[C@@H]2C=C(c2ccc(F)cc2OCc2ccccc2)C3)cc1OC | i | 2.2
CC(C)(C)c1ccc(C(=O)N2CCC2(C)C(=O)NS(=O)(=O)c2ccccc2Cl)cc1 (stereo unspecified) | i | 1.9
CC(C)N1CCC1(C)C(=O)Nc1nc2ccccc2[nH]1 (stereo unspecified) | i | 5.0
CSC[C@H]1CN(Cc2ccccc2)C(=O)[C@@H]1CC(=O)Nc1ccc(Br)cc1 | i | 0.5
COC(=O)[C@H]1C[C@H](OC(=O)NCc2ccco2)[C@@]2(O)CN(S(=O)(=O)c3ccc(C)cc3)CC2[C@H]1C(=O)OC (stereo partly specified) | i | -0.1
CC(C)NC(=O)C1(C)CCCCN1Cc1ccc(OCc2ccccc2)cc1 (stereo unspecified) | i | 5.3
Cc1ccccc1OCc1nnc(SC(C)C(=O)O)n1-c1ccccc1 (stereo unspecified) | i | 0.2
Cc1ccc(C(=O)C=CC=Cc2ccccc2)cc1 | i | -0.7
CCc1nc2ccc(C(=O)NCCN3CCOCC3)cn2c1N(CC)CCOC | i | -1.5
Nc1nc2ncccn2c1-c1ccc(F)cc1 | i | -5.4
CCc1ccc2c(c1)NC(=O)C2(C)Cc1ccc(Cl)s1 (stereo unspecified) | i | -4.4
COc1ccc(C(N)c2csc(Nc3ncccn3)n2)cc1 (stereo unspecified) | i | 2.8
Cc1ccc(-c2nc3c4ccccc4ccn3c2Cc2cccc(Cl)c2)cc1 | i | 8.2
Cc1cc(C(=O)N2CCC2(C)C(=O)Nc2cccc3c2CCCC3)nn1C (stereo unspecified) | i | -1.4
COC(=O)[C@@]12C[C@@H](CC(=O)N3CCOCC3)C(=O)N(Cc3cccc4ccccc34)C1=CCC(C)(C)C2 | i | 3.1
Cc1c(C(=O)NCc2ccc3c(c2)OCO3)sc(=O)n1Cc1ccc(S(=O)(=O)N(C)C)cc1 | i | 1.7
Cc1cccc(C)c1NC(=O)c1ccc2sc([C@@H]3O[C@H](CO)[C@H](O)[C@H](O)[C@H]3O)nc2c1 | i | -0.4
OC[C@@H]1CN(Cc2ccc3c(c2)OCO3)C[C@H](n2cnc3c(NC4CC4)ncnc32)O1 | i | 6.1
CCc1nc2ccc(C(=O)N(C)Cc3ccccc3)cn2c1N(C)CCCc1ccccc1 | i | 1.4
CCCCC1Cc2[nH]c(=S)[nH]c(=O)c2C(c2ccc3ccccc3c2)O1 (stereo unspecified) | i | 4.8
C[C@H]1CN([C@@H](C)CO)C(=O)CCCn2cc(nn2)CO[C@@H]1CN(C)C(=O)OCc1ccccc1 | i | -0.9
CCN(CC)C(=O)C1=C(C)N(Cc2ccc(OC)cc2)C(=O)C(CC(=O)NCCc2ccccn2)C1 (stereo unspecified) | i | 0.7
Cc1ccccc1Nc1nc(Cl)nc(NC(C)(C)C)n1 | i | -1.1
CC(N)c1csc(Nc2nccc(C(F)(F)F)n2)n1 (stereo unspecified) | i | 3.0
CC(=O)NC(c1cccc(F)c1)c1nc(-c2cccc(C(C)C)c2)cs1 (stereo unspecified) | i | 0.8
COc1cccc(S(=O)(=O)Nc2ccc(C(O)(C(F)(F)F)C(F)(F)F)cc2)c1 | i | 4.3
CCc1nc2ccc(C(=O)N3CCCC(C(N)=O)C3)cn2c1N(C=O)CC (stereo unspecified) | i | 1.1
O=C(Nc1cccc(S(=O)(=O)N2CCCC2)c1)[C@H]1C[C@H](O)[C@@H](CO)O1 | i | -1.2
CC1=NN(c2ccccc2)C(=O)C1=Cc1ccccc1 | i | 2.1
CCCCCCCCN1C(=O)[C@H](CC(=O)N2CCSCC2)C[C@@]2(C(=O)OC)CC(C)(C)CC=C12 | i | -0.5
NC(Cc1ccccc1)c1csc(Nc2ccc(C(F)(F)F)cn2)n1 (stereo unspecified) | i | 4.7
Cc1ccc2c(C)c(C(=O)N3CCC(C(N)=O)(N4CCCCC4)CC3)oc2c1C | i | 3.6
COC(=O)[C@@]12C[C@@H](CC(=O)NCc3ccc(C)o3)C(=O)N(Cc3ccco3)C1=CCC(C)(C)C2 | i | 1.3
C[C@H](CO)N1C[C@H](C)[C@@H](CN(C)Cc2ccccc2F)Oc2ncc(Br)cc2C1=O | i | -0.7
CCc1nc2ccc(C(=O)Nc3ccc(OC)c(OC)c3)cn2c1N(C)CCC(C)C | i | -1.2
Cc1ccc(SCc2c(C(=O)N/N=C/c3cccs3)nnn2-c2nonc2N)cc1 | i | -1.7

Rewritten with the structure last: part of the list above.
FGF22 binding	HNF4A DNA FP	mol
i	3.0	CC(N)c1csc(Nc2nccc(C(F)(F)F)n2)n1 (stereo unspecified)
i	4.3	COc1cccc(S(=O)(=O)Nc2ccc(C(O)(C(F)(F)F)C(F)(F)F)cc2)c1
i	-1.1	Cc1ccccc1Nc1nc(Cl)nc(NC(C)(C)C)n1
i	4.7	NC(Cc1ccccc1)c1csc(Nc2ccc(C(F)(F)F)cn2)n1 (stereo unspecified)

The list goes on.
SMILES | FGF22 binding | HNF4A DNA FP
CCN1C(=O)[C@H]2[C@@H](c3ccc(C(F)(F)F)cc3)N[C@]3(CCCN(Cc4ccc(Cl)cc4)C3=O)[C@H]2C1=O | i | 0.4
c1ccc2c(c1)ncn2-c1cncnc1 | i | 1.5
Cc1ccc(S(=O)(=O)NN=Cc2ccccc2Cl)cc1 | i | 1.8
OC[C@@H]1CN(Cc2ccncc2)C[C@H](n2cnc3c(NCc4ccncc4)ncnc32)O1 | i | 1.1
COc1ccc(NC(=O)c2cc(-c3cc(F)ccc3OC)n[nH]2)cn1 | i | -0.5
COc1ccccc1Cc1c(-c2ccc(OC)c(OC)c2)nc2ccc(Cl)cn12 | i | 18.5
CCNC(=O)C1CCCN(C(=O)c2cccc(C(F)(F)F)c2)CC1 (stereo unspecified) | i | -0.1
C[C@H]1CN([C@@H](C)CO)C(=O)CCCn2nncc2CO[C@H]1CN(C)C(=O)Nc1ccc2c(c1)OCO2 | i | -2.0
COc1cc(-c2cnc3c(NC=O)cc(-c4ccc(C)cc4)cn23)cc(OC)c1OC | i | 7.8
COc1ccc(NC(=O)C2CC(=O)N(c3ccccc3F)C2)cc1S(=O)(=O)N1CCCCC1 (stereo unspecified) | i | -3.9
COc1ccc(C(NC(=O)C2CCN(CCc3ccccc3)CC2)c2ccccn2)cc1 (stereo unspecified) | i | 2.5
CCCCN(C=O)c1c(CC)nc2ccc(C(=O)NCc3cccs3)cn12 | i | 2.8
COC(=O)c1ccc(C(=O)OC)c(NC(=O)Cc2cccs2)c1 | i | 9.0
CC(C)(C)NC(=O)C(c1ccccc1F)n1c(=O)c(-c2cc3ccccc3[nH]2)nc2ccccc21 (stereo unspecified) | i | 11.7
CC(C)(C)NC(=O)C(c1ccc(C(F)(F)F)cc1)n1c(=O)c(-c2ccco2)nc2ccccc21 (stereo unspecified) | i | 42.4*

Shown tab-delimited: entries from further up.
Compound	FGF22 binding	HNF4A DNA FP
COc1ccc(NC(=O)c2cc(-c3cc(F)ccc3OC)n[nH]2)cn1	i	-0.5
COc1ccccc1Cc1c(-c2ccc(OC)c(OC)c2)nc2ccc(Cl)cn12	i	18.5

Next section.
SMILES | FGF22 binding | HNF4A DNA FP
Cc1nc(C(F)(F)F)ccc1C(=O)N1CCC1(C)C(=O)NS(=O)(=O)c1ccc2c(c1)CCO2 (stereo unspecified) | i | 0.1
CCCCNC(=O)C1(C)CCCCN1C(=O)c1cc2ccccc2s1 (stereo unspecified) | i | -3.9
Cc1cccc(C(=O)OCC(=O)NC(=O)NC2CCCCC2)c1 | i | -2.5
CCC(c1nnnn1-c1ccc2c(c1)OCCO2)N1CCc2ccccc2C1 (stereo unspecified) | i | -1.6
COc1ccc(-c2cc(NC(C)=O)c3ncc(-c4ccccc4)n3c2)cc1OC | i | 6.3
O=C(c1ccccc1)C1CC1c1ccccc1 (stereo unspecified) | i | -0.1
CCOC(=O)Cc1ccc(Nc2nc(NC)nc3ccsc23)cc1 | i | -1.2
CC1(C(=O)NCC2CC2)CCN1C(=O)C/C=C/c1ccccc1 (stereo unspecified) | i | -1.5
CSc1ncnc2c1ncn2CCCNCc1ccc2c(c1)OCO2 | i | 0.2
CC1(C(=O)NS(=O)(=O)c2ccc(Cl)cc2)CCN1C(=O)CCc1ccc(Cl)cc1Cl (stereo unspecified) | i | 6.6
CC(=O)N1N=C(N)SC1c1ccc(Cl)c(Cl)c1 (stereo unspecified) | i | -0.1
CCCCNC(=O)C1C(c2ccc(OC)cc2)=Nc2ccccc2N1C(=O)c1ccc2ncccc2c1 (stereo unspecified) | i | 3.7
Cc1noc(C)c1-c1ccc(C(=O)NCc2cccs2)c2occc12 | i | 4.8
Cc1cn([C@H]2C[C@H](O)[C@@H](/C=C/C(=O)N3CCN(Cc4ccc(F)cc4)CC3)O2)c(=O)[nH]c1=O | i | 5.0
CC1ON=C(c2ccccn2)N(Cc2ccc(S(C)(=O)=O)cc2)C1=O (stereo unspecified) | i | 4.5

Ordered by the number under HNF4A DNA FP (largest number first): 5 of the compounds above.
SMILES | FGF22 binding | HNF4A DNA FP
COc1ccc(-c2cc(NC(C)=O)c3ncc(-c4ccccc4)n3c2)cc1OC | i | 6.3
Cc1cn([C@H]2C[C@H](O)[C@@H](/C=C/C(=O)N3CCN(Cc4ccc(F)cc4)CC3)O2)c(=O)[nH]c1=O | i | 5.0
Cc1noc(C)c1-c1ccc(C(=O)NCc2cccs2)c2occc12 | i | 4.8
CSc1ncnc2c1ncn2CCCNCc1ccc2c(c1)OCO2 | i | 0.2
O=C(c1ccccc1)C1CC1c1ccccc1 (stereo unspecified) | i | -0.1

Other compounds follow:
SMILES | FGF22 binding | HNF4A DNA FP
O=C1C(N2CCOCC2)=Cc2cccc3cccc1c23 | i | -92.2
O=C(C[C@H]1C[C@@H]2c3cc(NC(=O)Nc4ccccc4F)ccc3O[C@@H]2[C@H](CO)O1)NCc1ccccn1 | i | 4.2
COc1ccc(NC(=O)C(c2ccnc3ccccc23)n2c(=O)c(-c3ccco3)nc3ccccc32)cc1 (stereo unspecified) | i | 10.7
Cn1nc(C(C)(C)C)cc1NC(=O)C1(C)CCN1C(=O)c1ccccc1CCc1ccccc1 (stereo unspecified) | i | 1.6
CCc1ccccc1NC(=O)CNC(=O)c1ccc(S(=O)(=O)NCc2ccco2)cc1 | i | -1.4
COC(=O)c1ccc2nc(-c3cccc(Br)c3)c(Cc3ccsc3)n2c1 | i | 2.9
CSc1ccc(NC(=O)C2(C)CCN2C(=O)c2ccccc2CCc2ccccc2)cc1 (stereo unspecified) | i | 1.8
Cc1cc(C)c(SSc2nnnn2-c2ccccc2)c(C)c1 | i | -0.5
Cc1ccc(-c2c(C#N)c(N)n(-c3ccccc3C)c(=O)c2C#N)cc1 | i | -0.3
COC(=O)C1(C)CCCC2(C)C1CCC13OCC(CC21)C(O)(C(C)C)C3O (stereo unspecified) | i | -0.7
COCCCNC(=O)C[C@@H]1C[C@@]2(C(=O)OC)CC(C)(C)CC=C2N(Cc2cccc3ccccc23)C1=O | i | 1.1
O=S1(=O)CC(N2CCC(c3ccccc3)CC2)CN1C1CCCCC1 (stereo unspecified) | i | 2.8
CC1C(=O)N(Cc2cn(Cc3ccco3)nn2)CCS(=O)(=O)N1Cc1ccc(-c2ccccc2)cc1 (stereo unspecified) | i | -3.5
Cc1ccc(S(=O)(=O)NC(=O)C2(C)CCN2C(=O)Cc2ccc(Cl)cc2Cl)cc1 (stereo unspecified) | i | -2.3
COC(=O)c1ccc(NC(=O)CN2CCC(NC(=O)c3ccccc3F)CC2)cc1 | i | 4.8
CCCNC(=O)C1(C)CCN1C(=O)Cc1ccc(-c2ccccc2)cc1 (stereo unspecified) | i | 2.4
OCc1cccc(-c2cnc3c(Nc4cccc(OC(F)(F)C(F)F)c4)nccn23)c1 | i | 22.5
COCCNc1nc(NCc2cccc(OC)c2OC)c2sccc2n1 | i | -3.3
CCOC(=O)C1(C)CCN1C(=O)c1cccc(Cl)c1 (stereo unspecified) | i | -1.6
CCOC(=O)[C@]12CCCC=C1N(Cc1ccccc1)C(=O)[C@H](CC(=O)N1CCN(C(=O)C3CC3)CC1)C2 | i | 2.2
CCN(CC)CCNc1c(C)cc(CO)c(Cl)c1C | i | -1.1
COc1ccc(C(NC(=O)C2CCN(CCCc3ccccc3)CC2)c2cccs2)cc1 (stereo unspecified) | i | -3.1
Cc1cccc(C(=O)N2CCC(=O)N([C@H](COCc3ccccc3)Cc3ccccc3)CC2)c1 | i | 2.5
COC(=O)c1ccc(CNc2ccc(C(C)=O)cc2)cc1 | i | 2.4

High-throughput results deposited in PubChem by several laboratories.

A portion of the library, so the mix of outcomes need not match the whole.
